# Mtb H37Rv = Confirmatory growth inhibition assay against Mycobacterium tuberculosis H37Rv, potency (AID 1949). 100,000 compounds, 1.6% hits. most inactive calls were filed without a number and no value below 0 was filed. inhibition, % at 10 µg/mL; hits with a dose series show IC50 in µg/mL;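 active means confirmed in a dose series; inconclusive means about 50% or more but not retested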;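 further: bacteria grown 7 days with compound before Alamar blue readout; 0% = untreated bacteria and 100% = reference antibiotic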
# * marks the source's active call; other numbers are inactive results; i = inactive; ? = inconclusive. An excerpt. The share of hits here may be higher or lower than overall.
Molecule | Mtb H37Rv
COc1ccc(CN2C(=O)c3cccc4cccc(c34)C2=O)cc1 | i
O=C(NCCNc1ccc([N+](=O)[O-])cc1C(F)(F)F)c1cccc(Cl)c1 | 0%
O=C(Nc1ccc(N2CCOCC2)cc1)Nc1ccc2snnc2c1 | 11%
CCOc1ccc(NC(=O)c2ccc(-c3ccccc3Cl)o2)cc1 | i
CCOc1ccc(OCCOCCN2CCCCC2)cc1 | i
CSc1cccc(NC(=O)CN(c2ccccc2)S(=O)(=O)c2ccccc2[N+](=O)[O-])c1 | i
O=C(OCc1c(F)cccc1Cl)c1cccs1 | 26%
CCOc1cc(C)c(Cl)cc1S(=O)(=O)N1CCN(C)CC1 | i
S=C(NC1CCCC1)N1CCC(Cc2ccccc2)CC1 | 8%
O=C(CSc1ncn[nH]1)Nc1ccc2ccccc2c1 | 12%
Cc1cc(C)c(C)c(S(=O)(=O)NCCCC(=O)O)c1C | 1%
Cc1cc([N+](=O)[O-])c(N2CCNCC2)cc1N | i
O=C(NC(=S)NCCO)c1ccccc1 | i
CCc1nc(SCC#N)c(C#N)cc1C | 4%
O=C(Nc1ccc(Cl)cc1)C1CC(=O)N(c2ccccc2Cl)C1 (stereo unspecified) | i
Cc1cc2sc(NC(=O)c3cccnc3)nc2cc1Cl | i
CCOC(=O)N1CCN(S(=O)(=O)c2cc(C)c(OC)c(C)c2C)CC1 | i
NC(=O)C1CCN(c2ncnc3c2cnn3-c2ccccc2)CC1 | i
CCn1ncc(CN2CCN(C(=S)Nc3ccccc3C(F)(F)F)CC2)c1C | i
O=C(CC1CCCCC1)NC1CCCCCC1 | i
CCOC(=O)c1sc(NC(=O)CSc2nc3ccccc3[nH]2)nc1C | i
CCOc1ccccc1NC(=O)c1c(NCc2ccccn2)sc2c1CCCCC2 | i
COc1ccc(-c2ccc(C#N)c(SCC(=O)NCc3ccc(F)cc3)n2)cc1OC | 1%
COc1ccc([N+](=O)[O-])cc1NC(=O)CN(c1cc(Cl)ccc1OC)S(=O)(=O)c1ccc(OC)c(OC)c1 | i
O=C(CSc1nnc(NC(=O)CCc2ccccc2)s1)Nc1ccccc1 | i
CC1=CC(C)(C)N2C(=O)C3(Nc4ccccc4CO3)c3cc(C)cc1c32 (stereo unspecified) | 0%
CC(C)(C)C(=O)Nc1ccc(C(=O)NCc2ccccc2)cc1 | i
CCCCc1nc(S(=O)(=O)c2ccc(Cl)cc2)c(N2CCOCC2)o1 | i
COc1ccc(CCNC(=S)NNC(=S)Nc2ccc(F)cc2F)cc1OC | i
Clc1ccc(-c2cn3cccnc3n2)cc1 | i
COc1ccccc1N1CCN(C(=O)CNS(=O)(=O)c2cccc(C(F)(F)F)c2)CC1 | i
Cc1cc(Cl)cc(C)c1OCCCCOc1ncnc2ccccc12 | i
CC(=O)Oc1ccc2c(=O)c(-c3ccccc3Cl)coc2c1 | i
COc1cc(C=O)cc(Br)c1OC(=O)c1ccc(Cl)cc1 | i
O=C(Nc1cccc([N+](=O)[O-])c1)c1ccc(C(F)(F)F)cc1 | i
O=C(CSCc1cccc(Cl)c1)Nc1ccccc1Br | i
Cc1cc(=O)oc2cc(NC(=S)NCc3cccnc3)ccc12 | ?
Cc1ccccc1NC(=O)c1ccc(OCC(=O)Nc2ccccc2F)cc1 | ?
CC(C)c1cc(I)ccc1NC(=O)CSc1nc2ccccc2c(=O)[nH]1 | i
CCc1ccc(N2CCN(CCNC(=O)Nc3ccc(OC)cc3)CC2)cc1 | i
CCOC(=O)c1c(-c2ccc(OC)c(OC)c2)csc1NC(=O)c1ccc(OC)cc1 | 1%
CCc1nnc(NC(=O)CN2C(=O)c3ccccc3S2(=O)=O)s1 | i
O=C1CC(Sc2nnc(-c3ccccc3)o2)C(=O)N1c1ccccc1 (stereo unspecified) | i
Cc1ccc(N(Cc2ccco2)C(=O)COc2ccc3oc(=O)cc(C)c3c2)cc1 | i
CS(=O)(=O)N(CC(=O)Nc1cccc(Cl)c1Cl)Cc1ccccc1 | i
Cc1ccc(NC(=O)CSc2nc3sc4c(c3c(=O)n2-c2ccccc2)CCC4)c(C)c1 | i
CCOc1ccccc1NC(=O)NNC(=O)c1cc(Cl)ccc1OC | i
Cc1ccc(OCC(=O)OC2CCN(C)CC2)cc1 | i
CC(C)c1ccc(C2c3c(oc4ccc(Cl)cc4c3=O)C(=O)N2CCCN2CCOCC2)cc1 (stereo unspecified) | i
Cc1cc(NC(=O)COc2ccc([N+](=O)[O-])cc2)ccc1Br | ?
S=c1[nH]nc(-c2ccccc2)n1-c1ccc(Cl)cc1 | i
c1ccc(-c2ccccc2OCCCN2CCCCCC2)cc1 | i
COC(=O)Cn1c(C)nc(=O)c(-c2ccccc2)c1C | i
CCCC(CCC)C(=O)Nc1ccc(-c2nnc(-c3ccco3)o2)cc1 | 11%
CCC(CO)NC1CCC(C(C)(C)C)CC1 (stereo unspecified) | 1%
Cc1cccc(C)c1OCC(O)CN1CCc2ccccc2C1 (stereo unspecified) | 3%
CC(C)COc1ccc(C(=O)N2CCCCCC2)cc1 | i
CC(=O)c1cccc(NC(=O)N2CCN(C/C=C/c3ccccc3)CC2)c1 | 2%
COC(=O)c1sccc1NC(=O)c1ccc(C(C)C)cc1 | 47%
O=C(CN(Cc1ccccc1Cl)S(=O)(=O)c1ccc(Cl)cc1)NC1CCCCC1 | i

# Other structures
Molecule | Mtb H37Rv
O=C(O)c1cccc(COCC(F)(F)C(F)F)c1 | i
COc1ccc2oc(=O)c(C(=O)N3CCN(c4ccccc4)CC3)cc2c1 | i
O=C(Cc1ccc(F)cc1)NCc1ccccc1Cl | 6%
COC(=O)c1ccsc1NC(=O)CSc1nnnn1-c1ccccc1SC | 1%
C=CCN(CC=C)CCCOc1cc(C(C)C)ccc1C | i
C=CCn1c(SCC(=O)Nc2cccc(C(F)(F)F)c2)nnc1C(C)NC(=O)c1ccccc1Cl (stereo unspecified) | i
O=C(CC(c1ccccc1)c1ccccc1)Nc1ccncc1 | 3%
COCCCNC(=O)CN(c1ccc(C23CC4CC(CC(C4)C2)C3)cc1)S(C)(=O)=O | i
CC(C)OCCCNC(=O)Cc1ccc(F)cc1 | i
CCCC(=O)c1cc(F)c(N2CCN(CC)CC2)cc1C | i
CCOc1ccc(NS(=O)(=O)c2c(Cl)cccc2Cl)cc1 | i
C/C(=N\NC(=O)c1cc(-c2cccc([N+](=O)[O-])c2)n[nH]1)c1ccccc1O | 1%
CC12CCC(C(=O)N(NC(=O)CCc3ccccc3)C1=O)C2(C)C (stereo unspecified) | i
COCCSc1nnc(NC(=O)c2ccco2)s1 | i
CCCOc1ccc(CNc2ccc(Br)cc2)cc1 | i
CCn1c(CNC(=O)c2cccc(Cl)c2)nnc1SCC(=O)Nc1ccc(C)c(Cl)c1 | i
Cc1cc(Br)c(NC(=O)CNC(=O)Oc2ccccc2)cc1C | 11%
CCOc1ccc(-n2c(C)nnc2SCC(=O)Nc2ccc(Br)cc2Cl)cc1 | i
CSc1n[nH]c(NCc2ccccc2)n1 | i
CC1=C(C(=O)Nc2cccc(C)n2)C(c2ccccc2C)C2=C(CCCC2=O)N1 (stereo unspecified) | i
COc1ccc(NC(=O)CN(C)S(=O)(=O)c2ccc(Cl)cc2)cc1Cl | i
Cc1ccc(S(=O)(=O)N(CC(=O)NCc2ccncc2)Cc2ccc(Br)cc2)cc1 | i
CCOc1ccc2nc(SCC(=O)c3cccs3)sc2c1 | i
COCCNC(=O)c1cc(-c2ccccc2)on1 | i
COc1cc2c(cc1OC)C(C)N(C(=O)CN1CCCCC1)CC2 (stereo unspecified) | i
CCCCN1C(=O)C(=O)c2cc(C)ccc21 | 9%
CCCCC(=O)Nc1ccc(NC(=O)c2ccccc2OC)cc1OC | 13%
CCOC(=O)c1c(NC(=O)Cc2ccc(Cl)cc2)sc(C(C)=O)c1C | i
COc1ccc(NC(=O)c2c(C)c(C)c(C)c(C)c2C)c([N+](=O)[O-])c1 | 28%
CC(Oc1ccc(C(C)(C)C)cc1)C(=O)NCc1ccco1 (stereo unspecified) | i
Cc1ccccc1NC(=S)Nc1ccccc1Cl | i
CS(=O)(=O)N(CC(=O)O)c1ccccc1Br | 1%
CC(C)(C)CC(=O)Nc1ccccc1C(C)(C)C | i
CCN1CCN(C(=S)c2cc(OC)c(OC)cc2OC)CC1 | i
O=CN(c1ccccc1)c1ccc2ccccc2c1 | i
CCOc1cc(C)ccc1OCc1nnc(SCC(=O)Nc2cccc(C)c2C)n1CC | i
O=C(/C=C/c1ccc(Cl)cc1)Nc1ncc(Cc2ccc(F)cc2)s1 | i
CCCCNC(=O)C(=O)NCc1cccs1 | i
Cc1ccc(OCC(=O)N(C)C2CCS(=O)(=O)C2)c(C)c1 (stereo unspecified) | i
Cc1ccc2cccc(S(=O)(=O)Nc3ccc4c(c3)OCO4)c2n1 | 1%
C#CCOc1nc2c(c(=O)n(C)c(=O)n2C)n1Cc1ccc(F)cc1 | i
C=CCNC(=O)c1ccccc1CCc1ccccc1 | i
Cc1coc2cc3oc(=O)c(CC(=O)O)c(C)c3cc12 | i
COc1ccc(C(=O)O)cc1NC(=S)NC(=O)c1ccccc1OC | i
COCCN1C(=O)/C(=C/c2ccc(Cl)c(Cl)c2)SC1=S | i
CCCCc1[nH]nc2c1C(c1ccc(F)cc1F)C(C#N)=C(N)O2 (stereo unspecified) | i
COc1ccccc1NC(=O)C1=C(C)NC2=C(C(=O)CC(c3ccc(OC)c(OC)c3)C2)C1c1ccc(C)o1 (stereo unspecified) | 3%
O=C(Nc1ccc2c(c1)OCO2)C1c2ccccc2Oc2ccccc21 | i
CCC(C)NCCOCCOc1ccc(C(=O)OC)cc1 (stereo unspecified) | i
O=C(O)c1cc(NC(=O)c2ccc(-c3ccccc3)cc2)cc(C(=O)O)c1 | i
O=C(CSc1nc(C(F)(F)F)cc(=O)[nH]1)Nc1ccc(F)cc1 | i
COc1cc(OC)c(NC(=O)CSc2ccccn2)cc1Cl | i
CCOc1ccc(Br)cc1S(=O)(=O)Nc1ccc(-c2cn3cccnc3n2)cc1 | i
CCC(C)NC(=O)c1ccccc1NC(=O)CN(c1ccc(OC)cc1)S(=O)(=O)c1ccc(C)c([N+](=O)[O-])c1 (stereo unspecified) | 4%
O=C(NC(=S)Nc1nc(-c2ccc3ccccc3c2)cs1)c1ccccc1F | 0%
CCc1ccc(N2N=C(C)/C(=C/c3ccc(N4CCOCC4)cc3)C2=O)cc1 | i
COC(=O)c1ccccc1NS(=O)(=O)c1ccc(F)cc1 | i
CCn1c(SCC(=O)O)nnc1-c1ccc(OC)cc1 | i
CCOc1cccc(C(=O)Nc2ccc(Br)cn2)c1 | 2%
COc1cc(S(=O)(=O)N2CCN(c3ccccc3)CC2)ccc1Cl | i

# More entries.
Molecule | Mtb H37Rv
Cc1cc(C)cc(OCC(=O)Nc2ccc(S(=O)(=O)Nc3ccccn3)cc2)c1 | 6%
CCSc1cc(C2C(C(=O)OC)=C(C)NC3=C2C(=O)CCC3)c(C)o1 (stereo unspecified) | 6%
Cc1ccc(C)n1-c1ccc(C(N)=O)cc1 | i
COc1cc(C)ccc1S(=O)(=O)n1cnc2cc(C)c(C)cc21 | 5%
CCCC(=O)Nc1cccc(NC(=O)Cc2ccc(Cl)cc2)c1 | i
O=S1(=O)CCC(S(=O)(=O)NCc2ccccc2)C1 (stereo unspecified) | i
O=C(O)c1ccc(-n2c(-c3ccccc3)n[nH]c2=S)cc1 | i
CC(C)(C)N1C(=O)NC(=O)/C(=C\c2ccc(N3CCCC3)cc2)C1=O | i
O=C(O)c1cc(-c2ccc3c(c2)OCCO3)nc2ccccc12 | i
Cc1ccc(S(=O)(=O)NC(=O)COc2ccccc2C(N)=O)cc1 | i
COc1cccc(S(=O)(=O)N2CCOCC2)c1 | i
CCc1ccc(OCCCCN(C)Cc2ccccc2)cc1 | 46%
CC(Sc1ncn(-c2ccccc2)n1)C(=O)Nc1ccccc1 (stereo unspecified) | 7%
Cc1ccc(-c2csc3ncn(CC#N)c(=O)c23)cc1C | i
CC(C(=O)Nc1ccccc1C(N)=O)c1ccc([N+](=O)[O-])cc1 (stereo unspecified) | i

# Among those listed so far, these have a thiophene ring, fused or not.
Molecule | Mtb H37Rv
O=C(OCc1c(F)cccc1Cl)c1cccs1 | 26%
CCOc1ccccc1NC(=O)c1c(NCc2ccccn2)sc2c1CCCCC2 | i
CCOC(=O)c1c(-c2ccc(OC)c(OC)c2)csc1NC(=O)c1ccc(OC)cc1 | 1%
Cc1ccc(NC(=O)CSc2nc3sc4c(c3c(=O)n2-c2ccccc2)CCC4)c(C)c1 | i
COC(=O)c1sccc1NC(=O)c1ccc(C(C)C)cc1 | 47%
COC(=O)c1ccsc1NC(=O)CSc1nnnn1-c1ccccc1SC | 1%
CCOc1ccc2nc(SCC(=O)c3cccs3)sc2c1 | i
CCOC(=O)c1c(NC(=O)Cc2ccc(Cl)cc2)sc(C(C)=O)c1C | i
CCCCNC(=O)C(=O)NCc1cccs1 | i
Cc1ccc(-c2csc3ncn(CC#N)c(=O)c23)cc1C | i

# The list continues:
Molecule | Mtb H37Rv
COC(=O)CCC(=O)Nc1ccc(C)cc1 | i
Cc1cccc(N2C(=O)Cn3c2nc2c3c(=O)n(C)c(=O)n2C)c1 | i
CCOC(=O)c1cc(NC(=O)c2cccnc2)cc(C(=O)OCC)c1 | 6%
O=C1c2cccc3cccc(c23)C(=O)N1CC1CCN(CC(O)COc2ccc3ccccc3c2)CC1 (stereo unspecified) | 0.84µg/mL*
Cc1ccc(NC(=O)Cc2ccc(Cl)cc2)c(Br)c1 | i
O=C(O)C(Nc1ncnc2ccccc12)c1ccccc1 (stereo unspecified) | i
CCOCCc1nnc(NC(=O)Cc2c(F)cccc2Cl)s1 | i
Cc1ccc(OCC(=O)Nc2cccc3c2CCCC3)cc1C | i
COC(=O)C12CCC(C)(C(=O)C1)C2(C)C (stereo unspecified) | i

# Screens (PubChem)
